Screening results from PubChem.
Sfp inh: Sfp phosphopantetheinyl transferase inhibition | 310,000 tested, 3.5% active | Biochemical Sfp PPTase activity, qHTS | Q9F4F7 | Potency, µM, inactives show max response, negative = inhibition, most hits filed as inhibitors; active = well fitted inhibition curve with a large enough effect; inconclusive = small, poorly fitted or top-dose-only effect, or another doubt; inactive = no such curve, though single readings can be large or run the other way;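 note: the enzyme is Sfp with the accession as filed and its product quenches rhodamine fluorescence; potency is the fitted concentration of half-maximal effect; 0% = enzyme reaction without inhibitor and -100% = no enzyme wells; top concentration of the series not given in the record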
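Buffer: 50 mM Hepes-Na pH 7.6, 10 mM MgCl2, 0.01% Nonidet P-40, 0.01% BSA. Enzyme 15 nM, pre-exposed to compound 15 min; substrates then added and fluorescence change tracked over 30 min.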
TRPV1 potentiator: potentiators of human vanilloid receptor 1 (TRPV1); potentiation, % at 8.33 µM; 320,000 tested, 0.02% active; Q8NER1; TRPV1-expressing cells, Fluo-8 calcium influx, capsaicin EC20 potentiation; host cell line not named in the record; control for the full effect not named in the record; active means potentiation above 80%; inconclusive means 30% to 80%; inactive means below 30%; note: 0% is about no effect
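Fluo-8 calcium influx in TRPV1-expressing cells, kinetic read (ex 480/em 520 nm). Compound added and read 3 min for agonist activity, followed by capsaicin at EC20 final and 2 min further read for enhancement.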
D2 PAM: potentiates the human D2 dopamine receptor allosterically. 360,000 tested, 0.23% active. DiscoveRx D2 beta-arrestin cells, luminescence, 90 min; 100% = 57 uM dopamine signal. AID 624464. potentiation, % (concentration not given with the values). P14416; active = potentiation of 50% or more; inconclusive = 30% to 50%; inactive = 30% or less;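 note: compound concentration not given in the record; tested on top of an EC20 dose of dopamine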
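D2 cells co-treated with compound plus 50 nM dopamine (EC20) for 90 min at 37 deg C to detect potentiation. Beta-arrestin recruitment was read as enzyme-fragment luminescence after 1 h at ambient temperature. Full response was set by 57 uM dopamine.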
PINK1 modulator: modulators of PINK1 expression | PINK1 immunofluorescence, high-content cytometry, 24 h | Potency, µM (top dose mostly 76.6 µM), without a hit: top-dose activation (PINK1 increase), most hits filed as activators | 410,000 tested, 0.2% active | AID 624263; active = well fitted activation curve with a large enough effect; inconclusive = small, poorly fitted or top-dose-only effect; inactive = flat fitted curve, though single readings scatter; cell line not stated here;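 note: potency is the fitted concentration of half-maximal effect; % of control where 0% means no effect; nearly all actives have a fitted effect of over 65% in size; a mitochondrial uncoupler was the plate control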
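Readout is PINK1 immunofluorescence, quantified alongside mitochondrial, cell and nuclear markers by laser-scanning microplate cytometry. Cells from a stable line were exposed to compound titrations (5 concentrations) for 24 hours, with CCCP controls.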
Six1-Eya2 inh: inhibitors of human Six1/Eya2 interaction; Q15475+O00167; AlphaScreen GST-Six1/His-Eya2 binding, biochemical; hits give low values; control for the full effect not named in the record; activity change, % (no concentration beside the values); 360,000 tested, 0.56% active; AID 651725; in the data active = activity change below about -65%; inconclusive = about -30% to -65%; inactive = above about -30%; note: % is set by controls: 0 for no effect and ±100 for the full control effect; compound concentration not given in the record
Target sequence (O00167 whole entry, looked up): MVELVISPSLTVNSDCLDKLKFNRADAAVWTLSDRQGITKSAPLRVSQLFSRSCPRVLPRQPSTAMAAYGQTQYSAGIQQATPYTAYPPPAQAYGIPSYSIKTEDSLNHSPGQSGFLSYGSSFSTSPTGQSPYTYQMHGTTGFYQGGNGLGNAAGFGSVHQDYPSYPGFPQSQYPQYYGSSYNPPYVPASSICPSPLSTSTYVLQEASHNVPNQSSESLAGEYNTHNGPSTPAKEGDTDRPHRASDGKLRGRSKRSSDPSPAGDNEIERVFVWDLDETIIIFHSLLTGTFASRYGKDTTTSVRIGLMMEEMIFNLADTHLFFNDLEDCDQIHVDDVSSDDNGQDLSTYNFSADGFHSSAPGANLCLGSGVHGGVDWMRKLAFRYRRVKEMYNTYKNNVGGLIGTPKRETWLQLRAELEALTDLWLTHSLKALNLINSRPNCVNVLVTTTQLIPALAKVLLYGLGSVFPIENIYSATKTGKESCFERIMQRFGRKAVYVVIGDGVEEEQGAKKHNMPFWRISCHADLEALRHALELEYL
Target sequence (Q15475 whole entry, looked up): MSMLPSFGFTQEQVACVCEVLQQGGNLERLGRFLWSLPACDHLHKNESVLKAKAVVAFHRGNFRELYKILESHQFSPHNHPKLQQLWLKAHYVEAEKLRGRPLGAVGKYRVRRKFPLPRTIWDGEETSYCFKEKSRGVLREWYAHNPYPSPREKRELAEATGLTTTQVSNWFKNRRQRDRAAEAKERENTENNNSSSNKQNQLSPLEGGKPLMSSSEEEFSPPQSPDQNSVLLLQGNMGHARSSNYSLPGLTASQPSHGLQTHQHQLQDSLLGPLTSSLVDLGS
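Compounds are tested against tagged Six1 and Eya2 proteins bridged by glutathione donor and nickel acceptor beads; after a one-hour incubation at 37 °C without light, AlphaScreen emission is recorded.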
D2 agonist: human D2 receptor agonism in beta-arrestin assay; P14416; DiscoveRx PathHunter D2 beta-arrestin, luminescence, 90 min; 100% = 57 uM dopamine signal; activation, % (concentration not given with the values); 360,000 tested, 0.084% active; in the data active = activation above about 40%; inconclusive = about 15% to 40%; inactive = below about 15%; note: compound concentration not given in the record; the text of the record calls up to 30% inactive
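DiscoveRx PathHunter D2 beta-arrestin cells (2,100/well) attached overnight, then compound-stimulated 90 min at 37 C in HBSS/10 mM HEPES/0.1% Tween-20 buffer; beta-galactosidase complementation read by luminescence after 1 h at ambient temperature. Dopamine 57 uM final (EC100) as control.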
CtBP-E1A blk: inhibitors of CtBP/E1A interaction | AlphaScreen GST-E1A/His-CtBP binding, 1536-well; hits give low values; control for the full effect not named in the record | activity change, % (test concentration not listed) | 340,000 tested, 0.49% active | AID 651724; in the data active means activity change below about -65%; inconclusive means about -30% to -65%; inactive means above about -30%; note: % is set by controls: 0 for no effect and ±100 for the full control effect; compound concentration not given in the record
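GST-E1A and His-tagged CtBP (125 nM each as 5X stock) were preincubated with pin-transferred compound for 2 h at 37 °C in the dark, then glutathione donor and nickel acceptor beads were added for 1 h before AlphaScreen reading.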
* = called active by the depositor; ? = inconclusive; / = no result given; [ ] = remark or other dose.

SMILES	Sfp inh	TRPV1 potentiator	D2 PAM	PINK1 modulator	Six1-Eya2 inh	D2 agonist	CtBP-E1A blk
O=S(=O)(c1ccccc1)N1CCN(c2nc(-c3cccs3)nc3ccccc23)CC1	-1%	5	/	1.0%	/	/	/
O=C(Cn1cc2c(n1)CCCC2)NCCCN1CCN(C2CCCCC2)CC1	-7%	22	-4	3.0%	3	-2.5	9
Cn1c(OCc2cccnc2)nc2c1c(=O)n(Cc1ccc(Br)cc1)c(=O)n2C	0%	-7	-4	-1.3%	-4	-0.1	-2
N/C(=N\OC(=O)CCC1CCCC1)c1ccc([N+](=O)[O-])cc1	-8%	-3	-6	-0.1%	-9	2.2	-7
CC(=O)N1CCC2(CC1)CC(=O)c1cc(Cl)ccc1O2	/	/	-10	2.1%	-3	-3.5	6
COc1cccc(CC(NC(C)=O)C(=O)NC2CCN(S(=O)(=O)c3ccc(NC(C)=O)cc3)CC2)c1OC (stereo unspecified)	2%	10	-5	1.3%	-3	0.6	6
COCCCNC(=O)c1ccc(S(=O)(=O)c2ccc(Cl)cc2)c(NC(C)=O)c1	0%	2	-1	-0.4%	3	5.7	3
CSc1cc(C)n(-c2ccccc2)c(=S)c1C(C)=O	6%	4	-4	0.6%	-1	-3.7	2
CN(CCC#N)C(=O)COC(=O)c1ccc(CNS(=O)(=O)c2ccc(F)c(Cl)c2)cc1	3%	18	-2	0.5%	8	-1.5	12
FC(F)Sc1nc2ccccc2[nH]1	-3%	25	-7	0.3%	8	-4.6	4
COc1ccc(C2CCCN2C(=S)Nc2ccccc2C)cc1OC (stereo unspecified)	8%	-5	-6	4.7%	-23	0.5	3
CCc1ccc(NC(=S)N(Cc2ccccc2)Cc2ccccn2)cc1	25%	3	-8	1.6%	-7	-0.1	4
COc1cccc(/C=C/C(=O)OCC(=O)NC2CC2)c1	/	-4	-1	1.3%	-1	9.2	-2
CCn1cc(C(C)NC(=O)COc2ccc(Cl)cc2C)c(C)n1 (stereo unspecified)	10%	-25	-2	3.2%[38.3 µM]	0	-0.3	1
CCCN(C(=O)COC(=O)CCOc1ccccc1C)c1c(N)n(Cc2ccccc2)c(=O)[nH]c1=O	24%	5	0	4.0%	4	-1.9	3
CCCn1c(=O)c(/C(N)=N/O)nn(-c2cccc(C(F)(F)F)c2)c1=O	14%	-15	3	0.6%	-17	1.5	2
Cc1onc(-c2c(Cl)cccc2Cl)c1C(=O)N1CCN(c2ccccc2)CC1	13%	-8	-10	6.5%	1	-3.1	/
COC(=O)c1sccc1NC(=O)Nc1ccc(C(C)=O)cc1	7%	-10	3	-0.9%	1	1.7	-6
O=C(NCc1cccs1)c1csc([C@@H]2O[C@H](CO)[C@H](O)[C@H](O)[C@H]2O)n1	/	/	-9	-0.2%	4	-4.4	1
COc1ccc(CNC(=O)c2sccc2C)cc1	-1%	-15	-5	2.3%	5	1.1	8
Cc1ccccc1C(=O)NN(C)c1nc2ccccc2nc1C(F)(F)F	14%	-4	-3	6.7%	4	-4.1	2
Cc1noc(C)c1-c1ccc2ncnc(NC(C)c3ccco3)c2c1 (stereo unspecified)	-7%	-1	/	1.3%	/	/	/
Cc1ccccc1OCc1nc2ccc(S(=O)(=O)N3CCOCC3)cc2[nH]1	40µM*	-5	0	26%[38.3 µM]	-5	-4.9	-3
Nc1ncnc2c1ncn2[C@H]1C[C@H](O)[C@@H](COP(=O)(O)O)O1	13%	5	-4	0.0%	-1	3.5	-6

Single entries from the list:
Cc1noc(C)c1-c1ccc2ncnc(NC(C)c3ccco3)c2c1 (stereo unspecified) @ PINK1 modulator: 1.3%
O=C(Cn1cc2c(n1)CCCC2)NCCCN1CCN(C2CCCCC2)CC1 @ TRPV1 potentiator: 22
N/C(=N\OC(=O)CCC1CCCC1)c1ccc([N+](=O)[O-])cc1 @ PINK1 modulator: -0.1%

The listing continues.
SMILES	Sfp inh	TRPV1 potentiator	D2 PAM	PINK1 modulator	Six1-Eya2 inh	D2 agonist	CtBP-E1A blk
Cn1sc(NC(=O)c2ccccc2)nc1=O	3%	10	23	1.5%[38.3 µM]	10	-2.7	7
CCCCNC(=S)Nc1ccccc1F	12%	-7	-11	1.5%	-6	-1.5	0
CCc1ccccc1NC(=O)CSc1nnc(Cn2nnc3ccccc32)n1C	14%	-2	-9	-5.4%[38.3 µM]	2	1.6	0
O=C(NCc1ccco1)Nc1ccc(Br)cc1Cl	-7%	-15	-17	?	-3	3.6	5
O=C1Nc2ccccc2C1(O)c1ccccc1 (stereo unspecified)	16%	1	-7	0.3%	0	-3.5	/
COc1ccc(/C=C2/CCCC(CN(C)C)C2=O)cc1 (stereo unspecified)	/	/	-13	-6.9%	-8	-0.3	6
O=C(NCc1ccco1)c1ccccc1O	22%	14	3	-0.4%	-4	-2.5	/
Cc1ccc(NC(=O)c2cnccn2)cc1C	10%	-19	0	2.5%	0	5.4	/
CC(c1cccs1)N(C(=O)Nc1ccccc1)C1CCCCC1 (stereo unspecified)	22%	5	-11	0.4%[38.3 µM]	23	-2.4	44
CCn1c(=O)n(C)c2c(=O)n(C)c(=O)n(C)c21	/	/	-8	2.5%	-8	-0.4	-5
O=S1(=O)C=CC(Nc2cccc(Cl)c2)C1 (stereo unspecified)	30%	-1	5	/	3	0.5	14
CS(=O)(=O)N1CCN(C(=S)NCc2ccc(F)cc2)CC1	1%	0	-6	0.0%	11	0.0	5
O=C(CCCCO)c1ccc(O)c(Cl)c1	/	?	-7	1.1%	0	-3.2	/
Cc1cc(Cl)c2ccc(Cl)cc2n1	17%	-1	0	-2.4%	-9	1.1	-4
N#Cc1ccccc1OCCCN1CCC(C(O)(c2ccccc2)c2ccccc2)CC1	/	/	/	-0.1%	-9	/	-17
CN(CC(=O)Nc1ccccc1Br)C(=O)Cn1[nH]c(=O)c2ccccc2c1=O	/	2	-22	2.9%	12	-0.1	/
NC(=O)c1c(NC(=O)C(=O)N2CCOCC2)sc2c1CCC2	-1%	14	-5	1.8%	-3	-1.1	3
O=C(c1ccc(COc2ccc(Cl)cc2)o1)N1CCN(Cc2ccc3c(c2)OCO3)CC1	-18%	0	-8	/	-21	2.3	10
O=C(NC1=NCCS1)c1ccccc1Cl	8%	0	-1	3.6%	1	2.2	10
Cn1nc(C(C)(C)C)c([N+](=O)[O-])c1C(=O)Nc1cccc2ccccc12	8%	-7	-7	1.5%	-1	-3.8	-6
COc1ccccc1CNS(=O)(=O)c1ccc(S(=O)(=O)NC2CC2)cc1	7%	-7	-21	5.5%	-17	-6.0	-30
Cc1cc(C)n(-c2cccc3cccnc23)n1	-4%	1	-2	5.6%[38.3 µM]	4	-3.0	1
CC(OC(=O)C1CCN(c2ccc(C(F)(F)F)cn2)CC1)C(=O)Nc1cccc([N+](=O)[O-])c1 (stereo unspecified)	/	-11	2	?	-7	4.4	-3
O=C(Nc1ccc(Cl)cc1)c1ccc2ncsc2c1	?	-7	-5	3.3%	21	?	/
CCN(CC)C(=O)C1=C(C)N(CCCN2CCCC2=O)C(=O)C(CC(=O)NC2CCCC2)C1 (stereo unspecified)	/	/	1	1.3%	0	-8.4	2
C[C@@H]1CN([C@H](C)CO)C(=O)c2cc(NC(=O)Nc3ccc(F)cc3)ccc2O[C@@H](C)CCCCO[C@H]1CN(C)S(=O)(=O)c1ccc(Cl)cc1	/	/	-5	3.0%	-1	3.2	-12
O=C(NCC(c1ccco1)N1CCCCC1)c1cnc(Cl)c(Cl)c1 (stereo unspecified)	/	/	-20	0.5%	8	0.6	-6
CC(=O)c1c(C)nc(-c2ccc(Cl)cc2)nc1N=CN(C)C	?	?	2	-0.2%	-3	3.6	0
Cc1ccc(OCCOCCn2cnc3ccccc3c2=O)c([N+](=O)[O-])c1	28%	8	18	3.8%	9	3.0	-1
CC1(C)CC2(CCCN3C(=O)CSC32)CCS1 (stereo unspecified)	0%	/	-3	2.9%	3	-1.9	9
COc1ccc(S(=O)(=O)N2CCC(C(=O)NCc3cccnc3)CC2)cc1Cl	9%	2	-4	1.3%	-2	0.0	-6
Cc1cccc(N2C(=O)N(c3ccccc3C)C3CS(=O)(=O)CC32)c1 (stereo unspecified)	0%	11	-22	-0.2%	-19	-7.5	1
Cc1ccccc1NC(=O)CC1SC(=O)N(c2ccccc2)C1=O (stereo unspecified)	?	4	-6	1.3%	7	-4.4	-1
Cc1nn(Cc2c(F)c(F)c(F)c(F)c2F)c(C)c1NC(=O)c1c([N+](=O)[O-])cnn1C	11%	3	4	22%[38.3 µM]	1	15	5
Cc1cc(=O)n(-c2ccc(Cl)cc2)c(=O)[nH]1	7%	22	-1	-1.1%	-6	-3.8	3
O=C(CN1C(=O)/C(=C/c2ccc(Cl)cc2)SC1=S)NC1C=CS(=O)(=O)C1 (stereo unspecified)	40µM*	9	-10	3.7%	-4	1.6	/
O=C(CCN1C(=O)/C(=C/c2ccccc2)SC1=S)Nc1cccnc1	-3%	-20	-8	17%	-6	-7.3	-7
O=S(=O)(Nc1ccccc1Cl)c1ccc(-c2ccccn2)s1	/	/	-3	1.0%	-12	0.8	0
OC(CN1CCCC1)Cn1ccc2ccccc21 (stereo unspecified)	-8%	-3	-9	-0.4%	-2	0.2	/
CCOC(=O)c1nnn(-c2nonc2N)c1CS(=O)(=O)c1ccccc1	16%	3	5	2.2%	6	-0.7	-2
COc1ccc2nc(NC(=O)CSc3nnnn3C)sc2c1	-10%	-8	-4	3.1%	8	-5.8	/
CCc1cccc(NC(=S)Nc2cccc3ccccc23)c1	-10%	-10	-27	-0.7%	-6	-1.8	-15
Cc1ccc(-n2ncc3c2CCCC3NC(=O)CCc2c(C)noc2C)cc1C (stereo unspecified)	-6%	-17	-10	0.0%	-4	-3.2	0
COc1cc(OC)cc(C2=Cc3ccccc3C(CC(C)=O)N2c2ccc(-c3cccs3)cc2)c1 (stereo unspecified)	/	/	/	2.1%	15	/	15
O=C(C1=C[C@H](c2ccc(Br)cc2)C[C@H](OCCCCO)O1)N1CCN(Cc2ccc3c(c2)OCO3)CC1	-8%	18	-21	1.3%	1	1.5	/

Two records picked at random from the list so far, as already listed:
SMILES	Sfp inh	TRPV1 potentiator	D2 PAM	PINK1 modulator	Six1-Eya2 inh	D2 agonist	CtBP-E1A blk
Cc1ccc(-n2ncc3c2CCCC3NC(=O)CCc2c(C)noc2C)cc1C (stereo unspecified)	-6%	-17	-10	0.0%	-4	-3.2	0
O=C(C1=C[C@H](c2ccc(Br)cc2)C[C@H](OCCCCO)O1)N1CCN(Cc2ccc3c(c2)OCO3)CC1	-8%	18	-21	1.3%	1	1.5	/
